# Compound activity (PubChem)
# MgrA DNA FP: S. aureus MgrA activity modulators, primary screen, biochemical, S. aureus Newman, fluorescence polarization | MgrA-DNA binding | inhibition, %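 (about 10 µg/mL by stock and volumes)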 | 84,000 compounds, 0.13% hits | AID 602314, 2012;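 active = above 50% in either of two replicates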;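 note: 0% = protein plus DNA without compound and 100% = DNA alone without protein; higher means less MgrA bound to DNA so lower polarization; one replicate is shown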
# Sa helicase inh: inhibitors of S. aureus replicative helicase, primary screen, biochemical, fluorescence unwinding readout; purified S. aureus helicase, fluorescence unwinding assay; about half of the hits fall short of the stated cut; inhibition, %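 (tested at about 80 µM)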; 120,000 compounds, 0.05% hits; AID 485395, 2010;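 active = both duplicates at 50% or more, or one of them with a favoured structure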;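 note: 0% = mean of negative control wells and 100% = mean of positive control wells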
# The depositor's hits bear a star; / = no result given.
Compound,MgrA DNA FP,Sa helicase inh
Cc1ccc(-n2c(-c3ccco3)nc3c(cnn3-c3ccccc3C)c2=O)cc1F,/,-20
CCOC(=O)c1sc(N)c(C#N)c1CSc1nc(-c2ccccc2)cs1,/,-12
Cc1cc(C)n2nc(SCC#N)nc2n1,-1.8,/
COc1cccc(CNC(=O)c2ccc(S(=O)(=O)N3CCCC3)cc2)c1,/,-14
CCOC(=O)c1ncn(-c2ccccc2)n1,-0.2,6
N#Cc1ccccc1OCC(=O)NC12CC3CC(CC(C3)C1)C2,/,-14
O=C(Nc1ccc2oc(-c3c(F)c(F)c(F)c(F)c3F)nc2c1)c1cccs1,3.9,6
O=C(C1CCCO1)N1CCc2ccccc21 (configuration not stated),-1.0,13
O=C(c1ccccc1)N(C(=O)c1ccccc1)c1ccccn1,1.2,0
C=CCc1c(CCC)nc(SC)[nH]c1=O,0.2,/
Cc1cc[n+](Cc2ccccn2)c(N)c1,0.5,-13
Cc1cccn2c(=O)c(/C=N/NC(N)=S)c(N3CCCC3)nc12,/,-1

# Reformatted with each value named: 4 of the compounds above
C=CCc1c(CCC)nc(SC)[nH]c1=O
  MgrA DNA FP: 0.2
  Sa helicase inh: /
CCOC(=O)c1ncn(-c2ccccc2)n1
  MgrA DNA FP: -0.2
  Sa helicase inh: 6
Cc1cc(C)n2nc(SCC#N)nc2n1
  MgrA DNA FP: -1.8
  Sa helicase inh: /
O=C(c1ccccc1)N(C(=O)c1ccccc1)c1ccccn1
  MgrA DNA FP: 1.2
  Sa helicase inh: 0

# Next section.
Compound,MgrA DNA FP,Sa helicase inh
CCN(C(=O)/C=C/c1cccs1)C1CCCCC1,0.9,-18
COc1ccc(Cn2c(CCC(=O)NC3CCCC3)nc3cccnc32)cc1,/,7
COc1cc(C(=O)Nc2ccc(Cl)c(-c3nc4cc(Cl)ccc4o3)c2)cc(OC)c1OC,0.7,/
O=C(/C=C/c1ccc([N+](=O)[O-])cc1)Nn1c(-c2ccc(Br)cc2)nc2ccccc2c1=O,0.4,/
C=CCn1c(SCC(=O)c2cccs2)nc2sc3c(c2c1=O)CCC3,0.3,/
Cc1c(C(=O)N(C)C2CCCCC2)sc2nc(-c3ccc(F)cc3)cn12,0.4,14
CCOC(=O)c1csc(-c2sccc2Br)n1,/,15
O=C(c1nc(-c2ccccc2)n(-c2ccccc2)n1)N1CCCCC1,-0.8,/
CCC(Cc1ccccc1)NC(C)=O (configuration not stated),-1.6,15
CC(C)OC(=O)CC12CN(C)CC(CC(=O)OC(C)C)(CN(C)C1)C2=O,-1.7,3
COc1ccc2ncc(-c3ccc(Cl)c(C)c3)nc2c1,1.3,/
Cc1cccc(NC(=O)CO/N=C/c2cccs2)c1,/,25
CS(=O)(=O)Nc1csc(C(F)(F)F)c1-c1ccccc1,-0.7,/
CC(C)c1ccc(N2CC(O)=C(c3nc4ccccc4[nH]3)C2=N)cc1,4.2,5
c1ccc(Oc2ccc(N=NN3CCCCC3)cc2)cc1,0.9,3
Cc1ccccc1NC(=O)CN(C)S(=O)(=O)c1cccs1,/,-26
O=C(c1cnn(-c2ccccc2)c1-n1cccc1)N1CCc2ccccc2C1,/,-11
CN(C)c1ccc(C=C2C(=O)OC(C)(C(C)(C)C)OC2=O)cc1 (configuration not stated),/,-83
Cc1ccc(C(=O)N/C(N)=N/c2nc3ccccc3s2)cc1,1.4,9
CC(=O)Nc1ccc2c(c1)CN(Cc1ccccc1)CO2,/,3
CCc1nnc(SCC(=O)O)o1,-2.6,9
O=C(Nc1ccc(Cl)c(Cl)c1)Nc1ccnn1C1CCCCC1,/,7
CS(=O)(=O)n1nc(-c2ccco2)nc1SCc1ccccc1,/,-32
S=c1nc(C2COc3ccccc3O2)[nH][nH]1 (configuration not stated),8.2,20
COC(=O)c1sc2ncn(Cc3ccc(C)cc3)c(=O)c2c1C,0.6,-3
COc1ccc2c(c1)c1c3n2CC(O)CN=C3CCC1 (configuration not stated),/,2
Cc1ccc(-c2nc(CSCC(=O)Nc3cc(C)on3)c(C)o2)cc1,-0.9,-18
COc1ccc(CCN=Cc2ccccc2O)cc1OC,-0.6,/
C[C@H](NC(=O)Cc1cccc2ccccc12)C(=O)NC1CC1,/,0
CC1CCCCN1c1nnc(NC(=O)c2cc(-c3ccc(Br)cc3)on2)s1 (configuration not stated),/,0
COc1cc(/C=C2\SC(=O)N(c3c(C)n(C)n(-c4ccccc4)c3=O)C2=O)ccc1O,-2.1,/
COc1cccc(CN2COc3ccc4c(-c5ccccc5)cc(=O)oc4c3C2)c1,1.6,-5
CC(=C1C(=O)c2ccccc2C1=O)N1CCN(CCO)CC1,6.2,-5
Cc1cccc2sc(NNC(=O)c3ccc(S(=O)(=O)N4CCCC4)cc3)nc12,/,-7
c1ccc(-c2nc3ccccc3nc2-c2ccccn2)nc1,2.0,10
NNC(=O)c1cccnc1N,/,-15
CCCCN1C(=O)/C(=C2/C(=O)N(Cc3ccccc3)c3ccccc32)SC1=S,-0.4,-4
COC(=O)CC1C(=O)NCCN1C(=O)c1ccc(-c2ccccc2)cc1 (configuration not stated),/,-5
O=C1NC(c2ccccc2)(c2ccccc2)C(=O)N1Cc1ncc(-c2ccccc2)o1,/,4
Cn1c(-c2ccccc2)c(C(=O)CNCc2ccco2)c2ccccc21,/,-15
O=C(Cn1cccc1C(=O)c1ccccc1)NC1CC1,0.3,13
O=C(Nc1ccc(Cl)cc1)c1ccccc1,/,24
CCC(CO)Nc1ncnc2sc(C)c(C)c12 (configuration not stated),/,14
Cc1c2cnc3nn(-c4ccccc4)c(=O)c-3cc2c(C)n1C,/,3
COc1ccc(OC)c(NC(=S)NCc2ccccc2)c1,/,-9
CCCc1ccc(N2C(=O)CCC2=O)cc1,0.9,/
CC(C)n1c(Nc2ccccc2)nc2ccccc21,-3.2,4
Cc1c(C(=O)N2CCCC2)oc2ccc3c(c12)C(=O)CC(C)(C)O3,0.4,-12
O=C1CC(S(=O)(=O)c2ccccc2)C(=O)N1c1cc(Cl)cc(Cl)c1 (configuration not stated),-8.6,/
COc1ccc(/C=C2\COc3ccccc3C2=O)cc1,-4.2,-20
COCCn1c(SCC(=O)c2ccc(CNC(C)=O)o2)nc2ccccc2c1=O,/,-14
CC(=O)Nc1ccc(SCc2ncc(-c3ccccc3)o2)cc1,/,1
COc1cc2c(C(=O)NCc3ccc4c(c3)OCO4)cn(CC(C)C)c(=O)c2cc1OC,/,33
COc1cc(NC(=O)C2CC(=O)NC3=C2C(=O)CC(C)(C)C3)c(OC)cc1Cl (configuration not stated),0.3,-8
OCCNc1ncnc2sccc12,0.6,/
OC(Cn1cncn1)c1ccc(Cl)cc1Cl (configuration not stated),-1.7,/
CC(C(=O)O)N1C(=O)CSc2ncccc21 (configuration not stated),/,9
CCS(=O)(=O)Nc1c(NC)c2ccccc2oc1=O,/,-26
Cc1oc2ncnc(NC3CCCC3)c2c1C(=O)O,/,-13
O=S(=O)(NCc1ccccc1)c1cccc(C(F)(F)F)c1,/,14

# Entries of single compounds from above:
# Results for `COc1ccc(/C=C2\COc3ccccc3C2=O)cc1` → MgrA DNA FP = -4.2; Sa helicase inh = -20
# Results for `CC(C(=O)O)N1C(=O)CSc2ncccc21` (configuration not stated) → MgrA DNA FP = /; Sa helicase inh = 9

# Next section.
Compound,MgrA DNA FP,Sa helicase inh
Cc1ccc(OCC(O)CN2CCN(c3nc(-c4ccccc4)ns3)CC2)c([N+](=O)[O-])c1 (configuration not stated),3.8,/
Cc1nc2ccccc2n1-c1ccccc1,/,-25
C/C(=N\NC(=O)N/N=C(\C)c1ccc([N+](=O)[O-])cc1)c1ccc([N+](=O)[O-])cc1,-1.3,/
O=c1ccc(-c2ccccc2)n[nH]1,/,-14
O=C(C1CCN(c2nccc(C(F)(F)F)n2)CC1)N1C=CC(C(F)(F)F)=NCC1,0.9,/
CCCSc1nnc2c(n1)OC(c1ccc(N(C)C)cc1)Nc1ccccc1-2 (configuration not stated),/,-41
Cc1ccc(-n2c(=O)oc3ccc(Cl)cc3c2=O)cc1,/,18
Cn1nc(C(F)(F)F)c(C(=O)Nc2ccc(F)cc2F)c1Cl,1.6,/
CC1Cc2ccccc2N1C(=O)CCN1C(=O)C2C3C=CC(C3)C2C1=O (configuration not stated),0.9,8
CCCNS(=O)(=O)c1ccc(CCC(=O)NCC2CCCO2)cc1 (configuration not stated),-2.3,8
Cc1cc(C)c(C#N)c(SCC(=O)N(CC(C)C)C2CCS(=O)(=O)C2)n1 (configuration not stated),/,-9
O=C(OC1CSSCC1OC(=O)c1ccccc1)c1ccccc1 (configuration not stated),-2.4,/

# For reference, some entries already given.
Compound,MgrA DNA FP,Sa helicase inh
Cc1ccc(OCC(O)CN2CCN(c3nc(-c4ccccc4)ns3)CC2)c([N+](=O)[O-])c1 (configuration not stated),3.8,/
Cc1nc2ccccc2n1-c1ccccc1,/,-25

# (next part)
Compound,MgrA DNA FP,Sa helicase inh
COc1cc(NC(=O)Cn2c(-c3cncs3)nc3ccccc32)cc(OC)c1OC,/,15
Cc1ccc(NC(=S)N(Cc2cn(C)c3ccccc23)C(C)C)cc1,-0.3,17
N#C/C(N)=C(\C#N)NCc1cccc(Cl)c1,1.2,/
N#Cc1ccccc1NC(=O)CNCC1CCCO1 (configuration not stated),-1.6,2
Cc1nnc2c(Nc3ccc4c(c3)OCO4)nc3ccccc3n12,-0.4,6
O=C(N/N=C/C1=COCCO1)c1cccnc1,/,-2
C#CCN1C(=O)S/C(=C/c2ccc3c(c2)OCO3)C1=O,1.5,15
O=S(=O)(Nc1cccc(Cl)c1)c1cccc(-n2cnnn2)c1,/,-3
N#C/C(=C\c1cn(Cc2ccc(C#N)cc2)c2ccccc12)C(=O)NCc1ccco1,0.3,3
CCOC(=O)c1cc(-c2ccc(OC)c(S(=O)(=O)NC3CC3)c2)on1,/,-19
COc1ccc(Sc2ccccc2C(=O)O)c(C(=O)O)c1,-3.1,/
COCCNC(=O)c1c(N)n(/N=C/c2ccc(OC)c(OC)c2)c2nc3ccccc3nc12,/,8
Cc1cc(=O)oc2cc3c(cc12)OCCN3,2.0,11
COc1ccc(C(=O)Cn2cnc3c(cnn3C(C)(C)C)c2=O)cc1,/,2
Clc1ccc(OCc2nc3ccccc3[nH]2)cc1,3.1,0
O=C(Nc1nccs1)C1CCN(S(=O)(=O)c2cccnc2)CC1,/,8
CSc1sc(C(=O)O)c(C)c1S(=O)(=O)c1ccc(Cl)cc1,-1.1,/
CCC(=O)Nc1ccc(N2CCN(C(=O)C(C)C)CC2)cc1,-3.9,5
O=C(c1cc2ccccc2cc1OCC(O)CN1CCCCC1)N1CCCCC1 (configuration not stated),/,7
CC1CCc2sc(NC(=O)c3ccco3)c(C#N)c2C1 (configuration not stated),/,-5
Cc1cccc(N2CCN(C(=O)Cn3cnc4onc(-c5ccc(F)cc5)c4c3=O)CC2C)c1 (configuration not stated),/,23
Cc1ncc(CO)c2c1OC(C)(C)OC2,/,4
N#Cc1cnc(SCC(=O)Nc2ccc(N3CCOCC3)cc2)nc1N,1.4,7
Cc1cc(Br)ccc1OCCCN1CCN(C)CC1,/,16
COc1ccc(C(=O)On2c(-c3ccc(C(C)(C)C)cc3)nc3ccccc3c2=O)cc1Br,-2.0,/
COCc1c(C(=O)OCC(=O)Nc2cc(-c3ccccc3)nn2-c2ccccc2)oc2ccccc12,/,-1
O=S(=O)(Nc1ccccc1OC(F)F)c1cccc2nsnc12,/,10
Cc1ccccc1CNCc1cccs1,-3.4,0
CCN(CC)CC(O)Cn1ccc2ccccc21 (configuration not stated),-2.2,3
O=C(O)CNC(=O)c1cncc(O)c1,-3.3,1
Cc1ccc(C(=O)OCC(=O)C23CC4CC(CC(C4)C2)C3)c(O)c1,/,-5
COc1ccccc1C(=O)C1C(=O)NC2(C)CC1c1cc(Cl)ccc1O2 (configuration not stated),0.6,-3
CC(C)N(C(C)C)S(=O)(=O)c1ccccc1,-0.1,8
c1ccc2oc(SCc3nc4c5c6c(sc5ncn4n3)CCCC6)nc2c1,-1.5,5
CSc1nnc(Cn2c(=O)sc3ccccc32)n1-c1cccc(Cl)c1,/,2
CC(C)(C)OC(=O)N1CCCN(C(=O)c2ccc(Cl)cc2)CC1,-0.7,/
CCOC(=O)c1ccccc1OCc1cc(C2Nc3ccccc3C(=O)N2c2cccc3ccccc23)ccc1OC (configuration not stated),-0.7,/
CCn1cc(CCCC(=O)NCCc2ccc(Cl)cc2)c2ccccc21,-0.3,2
CC(=O)Nc1ccc(OC(=O)COc2cccc(C)c2)cc1,-4.8,0
Cc1cc(C)c2c(=O)[nH]c(SCCOc3ccccc3)nc2n1,/,-5
CCC(=O)n1c(=O)n(C(=O)CC)c2ccccc21,/,20
CCCCCCn1c(CN2CCC(C(N)=O)CC2)nc2c1c(=O)n(C)c(=O)n2C,/,-12
N#Cc1c(NC(=O)COC(=O)c2ccc(F)cc2)sc2c1CCC2,-3.8,10
COc1ccc(-n2nc3c(c2NC(=O)CCc2ccccc2)CSC3)cc1,/,-19
C=CCn1c(SCC(=O)N(CC(C)C)CC(C)C)nc2scc(-c3ccco3)c2c1=O,/,-2

# This is a subset; rates above refer to the full screens.
